# Bioassay records from PubChem BioAssay.
# Choline anaer gr = inhibitors of anaerobic choline-dependent gram-negative bacterial growth; calls only; Gram-negative bacterium anaerobic choline minimal medium, absorbance growth; stronger effect = lower value; many inactives read as strong as hits in the columns shown; actives 0.2% (n = 55,000);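 active means growth z-score on choline under -2 at 7 or 20 h with little or no fall on glycerol, limits in tiers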;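 further: stock transfer was 300 nL into about 50 µL; the organism is E. coli; final concentration not given here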
# Choline anaer gr early = also measured in Choline anaer gr; calls as there; z-score; measured here: choline growth z-score, timepoint 1;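 score of optical density at 7 h as mean of two plates; lower means less growth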
# The depositor's hits bear a star; i = inactive; & = joins results of further samples.
SMILES,Choline anaer gr,Choline anaer gr early
NS(=O)(=O)c1ccc(CCNC(=O)C(Cc2ccccc2)NS(=O)(=O)c2cccc3nsnc23)cc1 (stereo unspecified),i,-0.37
c1ccc(-c2ccc(SCc3nc(-c4ccc5c(c4)OCO5)no3)nn2)cc1,i,0.15
Cc1ccc(NC(=O)c2nc3cc(C)c(C)cc3n(C)c2=O)cc1C,i,-0.33
COc1ccc(Nc2nc(N)nc(CSc3nnc4sc5ccccc5n34)n2)cc1,i,0.87
COc1ccc(N2C(=O)c3cccnc3C2=O)cc1,i,-0.63
CCOC(=O)c1cn[nH]c1S(=O)(=O)N1CCc2ccccc21,i,-0.75
Cc1noc2ncnc(N3CCC(C(=O)NCc4cccnc4)CC3)c12,i,-0.6
Cc1nc(CCNC(=O)[C@H]2CCCN2S(=O)(=O)c2ccc(Cl)cc2)cs1,i,1.3
CCC(=O)Nc1nc2cc(NC(=O)CCc3nc(-c4ccc(C)cc4)no3)ccc2s1,i,1.5
Clc1ccc(N2CCN(Cc3cc4ccccn4n3)CC2)cc1,i,-0.41
O=S(=O)(c1cccn2c(SCc3cccc(Br)c3)nnc12)N1CCCCC1,i,-1.2
Cc1ccc(OCC(=O)Nc2ccccc2SCc2cc(=O)n3c(ncn3C(C)C)n2)c(C)c1,i,-0.79
COc1ccc(-c2cc(=O)[nH]c(SCc3nc(-c4ccc(OC(C)C)cc4)oc3C)n2)cc1,i,0.22
Cc1nc2ccccc2c2c1C(=O)N(c1ccc(C(=O)O)cc1)C2=O,i,0.17
CCOc1ccc(C2C3=C(CC(c4ccc(OC)cc4)CC3=O)Nc3onc(C)c32)cc1 (stereo unspecified),i,0.27
CC(C)NC(=O)N1CCCC1c1cc(C(C)C)no1 (stereo unspecified),i,-0.03
Cc1cc2n(n1)CCCN2C(=O)CCC(=O)Nc1ccc(F)cc1F,i,-0.2
CC(C)c1nc(CNC(=O)c2ccc(Cl)cc2)no1,i,0.25
COc1ccc(Cc2nnc3sc(-c4c[nH]c5ccccc45)nn23)cc1OC,i,-1.2
O=S(=O)(Nc1ccc(Cn2cnc(-c3nc(-c4ccc(F)cc4)no3)c2)cc1)c1cccc(Cl)c1,i,0.98
O=C(c1ccc2c(c1)OCO2)N1CCC(c2nc(-c3ccc(Cl)cc3)no2)CC1,i,0.07
O=C(OCCN1CCCCC1)c1c[nH]c2ccccc12,i,-0.17
O=C(Cc1noc2ccccc12)Nc1ccccc1F,i,-0.63
CCc1nc(CN2C(=O)COc3cc(S(=O)(=O)N4CCCCC4)c(Cl)cc32)no1,i,1.2
Cc1cc2c(cc1S(=O)(=O)N1CCCC1C(=O)N1CCN(C3CCCCC3)CC1)OCC(=O)N2 (stereo unspecified),i,0.27
O=C(O)c1c[nH]c2ccc(S(=O)(=O)NC3CCCCNC3=O)cc2c1=O (stereo unspecified),i,1.1
Cc1nnc2c(SCc3ccc4c(c3)OCO4)nc3ccccc3n12,i,1.1
CNC(=O)c1c(NC(=O)CCS(=O)(=O)c2ccccc2)sc2c1CCC2,i,1.5
CCOCC(=O)N1CCN(c2cc(=O)n(C(C)C)c(=O)n2C(C)C)CC1,i,-0.74
Cc1ccc(-c2nc(CN3CCC(C(=O)N4CCC(O)(c5ccc(Cl)cc5)CC4)CC3)no2)cc1,i,-0.89
CCCCC(=O)Nc1cc(C)nn1-c1ncnc2c1cnn2-c1ccc(F)cc1,i,-1.4
COCCn1c(CCCC(=O)NCCN(C)C)nc2cccnc21,i,-0.09
O=Nc1ccc2oc(=O)ccc2c1,i,1.1
N[C@@H](Cc1ccc(O)c(I)c1)C(=O)O,i,0.35
CCOC(=O)C1CCN(C(=O)C2CCN(c3ccc4nnc(C)n4n3)CC2)CC1,i,0.16
O=C(NCCCn1ccnc1)C1CC(=O)N(CCc2c[nH]c3ccc(F)cc23)C1 (stereo unspecified),i,-1.7
O=C1CC(c2ccccc2)c2scc(-c3ccccc3)c2N1 (stereo unspecified),i,0.85
COc1cccc(-c2nc(CSc3nc4ccccc4c(=O)n3C)c(C)o2)c1OC,i,0.71
COc1ccc(NS(=O)(=O)c2cc(-c3c(C)nn4c3NC(=O)CCC4=O)ccc2C)c(OC)c1,i,-1.1
CCOc1ccc(NC(=O)C(CC)n2nc(-c3ccccc3)c3c(c2=O)CCCC3)cc1 (stereo unspecified),i,0.67
COCCn1c(SCc2ccc(C(=O)OC)o2)nc2c(-c3ccccc3)cn(C)c2c1=O,i,1.5
Cc1ccc(Cl)cc1NS(=O)(=O)c1cc(-c2nc(C(C)(C)C)cs2)cs1,i,0.61
CC(C(=O)Nc1ccc2c(c1)OCCO2)S(=O)(=O)c1ccc2c(c1)S(=O)(=O)N=CN2 (stereo unspecified),i,-0.42
NC1=NC(=O)/C(=C/c2ccc(O)cc2)S1,i,0.71
CCSc1nc2ncn(CC(=O)Nc3ccc(Cl)cc3)c(=O)c2s1,i,0.47

# Compound profiles (already shown). Values in the order: Choline anaer gr	Choline anaer gr early
# Record of N[C@@H](Cc1ccc(O)c(I)c1)C(=O)O = i	0.35
# Record of COCCn1c(SCc2ccc(C(=O)OC)o2)nc2c(-c3ccccc3)cn(C)c2c1=O = i	1.5
# Record of CCOCC(=O)N1CCN(c2cc(=O)n(C(C)C)c(=O)n2C(C)C)CC1 = i	-0.74
# Record of Cc1noc2ncnc(N3CCC(C(=O)NCc4cccnc4)CC3)c12 = i	-0.6

# Continuation.
SMILES,Choline anaer gr,Choline anaer gr early
CCc1nn(-c2ccccc2)c2nc(-c3ccccc3)nc(SCC(=O)Nc3ccccc3)c12,i,0.73
CN(C)c1ccc(C(CNC(=O)C2CC2)N2CCc3ccccc3C2)cc1 (stereo unspecified),i,0.75
O=C(Nc1ccc(F)cc1F)c1ccc(NC(=O)N2CCSc3ncccc32)cc1,i,-0.46
Cc1ccc(S(=O)(=O)N2C(=O)CCC2C(=O)NC2CCCC2)cc1 (stereo unspecified),i,1.2
Cc1ccc(C)c(C2CC(=O)Nc3c2cnn3-c2nc3ccccc3s2)c1 (stereo unspecified),i,0.02
C=CCOc1ccc(NC(=O)c2cc3cc(OC)ccc3n2C)cc1,i,0.09
Fc1ccc(-c2ccc(CNCC3CCNCC3)o2)cc1,i,-0.44
Cc1nnc2c(SCc3ccccc3F)nc3ccccc3n12,i,-1.6
CCCc1cc(C2CCCN2Cc2cc(Br)ccc2O)no1 (stereo unspecified),i,1.3
O=C(NCCc1c[nH]c2ccc(Cl)cc12)c1cccc(Cn2c(=O)c3cccn3c3cccnc32)c1,i,0.08
COc1ccc(-c2[nH]ncc2C(=O)NC2CCCCC2)cc1,i,0.45
COc1ccc(OCCn2c(CCNC(=O)c3cccc(C)c3)nc3ccccc32)cc1,i,2
N[C@@H](C(=O)O)[C@@H](OCc1ccccc1)C(=O)O (racemic),i,-0.45
Cc1ccc2snc(C(=O)N3CCN(C(=O)c4ccc(Br)cc4)CC3)c2c1,i,1.2
O=S(=O)(c1ccc2c(c1)-c1oncc1CO2)N1CCOCC1,i,-0.48
COc1cc(C)c(S(=O)(=O)Nc2ccc(-c3ccc(N4CCCC4)nn3)cc2)cc1C,i,1.2
O=C(NCC1CCN(CCc2ccccc2)C1)Nc1ccc(F)cc1 (stereo unspecified),i,-0.41
COc1ccc(NC(=O)c2cc(-c3ccccn3)n[nH]2)cc1OC,i,0.37
Cc1ccc(-c2nc3nc(C)cc(NC(C)C)n3n2)cc1,i,0.6
CN1CCCc2cc(C(CNC(=O)c3ccc(Br)cc3)N3CCOCC3)ccc21 (stereo unspecified),i,0.23
CCOC(=O)c1c(C)[nH]c(C)c1S(=O)(=O)N1CCC(C(=O)N2CCc3ccccc3C2)CC1,i,0.1
O=C(Oc1ccccc1C(=O)O)c1ccccc1O,i,-0.48
CCOC(=O)C1CCC(CNC(=O)N2CCCC2c2cc(C)no2)CC1 (stereo unspecified),i,-0.53
O=C(COc1ccc(F)cc1)Nc1ccc2oc(-c3ccccc3F)nc2c1,i,0.19
CC1CCN(C(=O)CCCOc2cc(=O)n(C)c3ccccc23)CC1,i,-0.67
O=C(Cn1ccc2c(SCc3ccccc3)nccc21)N1CCN(c2ccccc2F)CC1,i,2.2
Fc1ccc(-c2nc3cnccn3c2Nc2ccc3c(c2)OCO3)cc1,i,0.22
Cc1ccc(CSc2nc(=O)n(C3CCCC3)c3c2CCC3)cc1,i,0.46
COc1cccc(CC(=O)N(C)CCc2noc(C(=O)NCc3ccccc3)n2)c1,i,0.33
CC(C)CNC(=O)c1cc2c(s1)CN(C(C)C)C2,i,1.7

# Random excerpt: five entries already listed, in no set order.
SMILES,Choline anaer gr,Choline anaer gr early
O=C(COc1ccc(F)cc1)Nc1ccc2oc(-c3ccccc3F)nc2c1,i,0.19
CCCc1cc(C2CCCN2Cc2cc(Br)ccc2O)no1 (stereo unspecified),i,1.3
CCC(=O)Nc1nc2cc(NC(=O)CCc3nc(-c4ccc(C)cc4)no3)ccc2s1,i,1.5
CC(C)CNC(=O)c1cc2c(s1)CN(C(C)C)C2,i,1.7
NS(=O)(=O)c1ccc(CCNC(=O)C(Cc2ccccc2)NS(=O)(=O)c2cccc3nsnc23)cc1 (stereo unspecified),i,-0.37

# (further entries)
SMILES,Choline anaer gr,Choline anaer gr early
COc1ccc(NC(=O)c2ccc(-c3ccc(-c4noc(C)n4)cc3C)cc2)cc1OCCN(C)C,i,-0.48
CCOC(=O)c1ccc(NC(=O)CSc2nc3ccccc3c(=O)[nH]2)cc1,i,-0.32
CNc1cc(NS(=O)(=O)c2ccc(N)cc2)nc(NC)n1,i,-0.41
O=C(NCc1ccc2c(c1)OCO2)c1ccc(-c2nccc(Oc3ccccc3)n2)cc1,i,0.03
CC(C)(C)c1cc2n(n1)CC(C)(C(=O)NC1CCCCC1)N(c1ccc(F)cc1)C2=O (stereo unspecified),i,0.32
O=C(NC1CCCc2ccccc21)C1CCN(c2nc3ccccc3[nH]2)CC1 (stereo unspecified),i,-0.02
CCCCOc1ccc(S(=O)(=O)N2CCN(c3nc(C)cc(NCC)n3)CC2)cc1,i,1.1
O=C(CCCN1C(=O)C(c2ccccc2)Oc2cccnc21)N1CCCCC1 (stereo unspecified),i,0.41
COc1cc(CNCc2cccnc2)ccc1OCc1ccc2c(c1)n(C)c(=O)n2C,i,-1.5
CCS(=O)(=O)Nc1ccc(C2(C(=O)N3CCCC(C)C3)CCCCC2)cc1 (stereo unspecified),i,-0.43
CCCn1c(=O)c2cc(F)ccc2n2c(SCc3ccc(F)cc3)nnc12,i,0.47
Cc1cccc(OCc2cc(=O)n3cc(C)sc3n2)c1,i,-0.13
Clc1ccc(OCc2nnc3sc(-c4c[nH]c5ccccc45)nn23)cc1,i,-3
O=C(Nc1cc(F)c2nc(N3CCCC3)ccc2c1)c1ccc(Cl)cc1,i,-0.32
CC(C)N1CCn2c(nc3cc(NC(=O)NC4CCCCC4)ccc32)C1,i,0.07
COc1ccc(C2CC(=O)Nc3c2c(C)nn3-c2nc3ccccc3n2C)cc1Br (stereo unspecified),i,0.35
Cc1cc(C)c2c(n1)sc1c(=O)n(CC(=O)Nc3ccc(F)cc3Cl)cnc12,i,0.12
CCS(=O)(=O)c1nc2ccc(NS(=O)(=O)c3c(C)cc(C)cc3C)cc2s1,i,0.65
CCC1c2cccn2-c2sc3c(c2CN1C(=O)NC1CCCC1)CCCC3 (stereo unspecified),i,0.48
CCC(C)NC(=O)Cn1nc2c3scc(-c4ccc(C)cc4)c3ncn2c1=O (stereo unspecified),i,-0.49
CCc1ccc(NC(=O)Nc2ccc3c(c2)oc(=O)n3CC)cc1,i,-1
CC1CCC(NS(=O)(=O)c2ccc(-c3ccno3)s2)CC1 (stereo unspecified),i,-0.28
Cc1ccc2cc(-c3noc(CCCC(=O)NC4CCCCC4)n3)c(=O)[nH]c2c1,i,-0.15
CN(C)c1ccc(CNC(=O)C2(NS(=O)(=O)c3cccc4cccnc34)CCCCC2)cc1,i,0.5
COC(=O)c1c(C)[nH]c(C(=O)N2CCC(CC(=O)NCc3ccc(OC(C)C)cc3)CC2)c1C,i,0.01
Cc1cc(C2CCCN2Cc2ccc(OCc3ccccc3)cc2)no1 (stereo unspecified),i,1
Cc1cc2nnc(SC(C)C(=O)Nc3ccccc3)n2c2ccccc12 (stereo unspecified),i,2.4
COc1ccc(-c2[nH]c(-c3ccccc3)nc2SCC(=O)Nc2nccs2)cc1,i,1.8
Cc1ccc(NC(=O)c2c(C)cc(C)nc2SCC(=O)Nc2nc3ccccc3s2)cc1,i,-0.12
O=C(Nc1c(-c2ccc(F)cc2)nc2ccccn12)c1cccc(F)c1,i,-0.43

# The closing six records of the part above lead into the next.
SMILES,Choline anaer gr,Choline anaer gr early
COC(=O)c1c(C)[nH]c(C(=O)N2CCC(CC(=O)NCc3ccc(OC(C)C)cc3)CC2)c1C,i,0.01
Cc1cc(C2CCCN2Cc2ccc(OCc3ccccc3)cc2)no1 (stereo unspecified),i,1
Cc1cc2nnc(SC(C)C(=O)Nc3ccccc3)n2c2ccccc12 (stereo unspecified),i,2.4
COc1ccc(-c2[nH]c(-c3ccccc3)nc2SCC(=O)Nc2nccs2)cc1,i,1.8
Cc1ccc(NC(=O)c2c(C)cc(C)nc2SCC(=O)Nc2nc3ccccc3s2)cc1,i,-0.12
O=C(Nc1c(-c2ccc(F)cc2)nc2ccccn12)c1cccc(F)c1,i,-0.43
CCOC(=O)c1cn[nH]c1S(=O)(=O)N1CCC(N2CCCCC2)CC1,i,-0.31
COc1ccc(-n2ccc(=O)c(-c3nc(-c4ccccc4Cl)no3)n2)cc1,i,1.7
CCN1CCN(c2nc(-c3ccccc3)cc(=O)[nH]2)CC1,i,0.2
CN(C)c1ccc(-c2noc(-c3ccc(Br)cc3)n2)cc1,i,1.5
COc1cc2c(cc1OC)C1CC(=O)C(CC(C)C)CN1CC2 (stereo unspecified),i,-0.12&0.1
CCOC(=O)c1cc2ccsc2n1CC(=O)Nc1cc(OC)cc(OC)c1,i,-0.01
CN(Cc1cccn1C)C(=O)C1CCCC1,i,-0.96
O=c1c2c(-c3ccccc3)csc2ncn1CCN1CCOCC1,i,-2
Cc1nc(Nc2ccccc2)nc2c1nc(C(F)(F)F)n2-c1ccccc1,i,-0.97
COc1ccc(CNC(=O)c2c(O)c3cccc4c3n(c2=O)CCC4)cc1,i,1.7

# This is a subset (hit frequency here may not be typical).
